Bioassay records: PubChem BioAssay, Fisher Drug Discovery Resource Center
NPYLR7 agonist – activates Aedes aegypti NPYLR7 receptor; HEK293T NPYLR7/Galpha15, GCaMP6s calcium fluorescence; activation, % at 10 µM; 270,000 compounds, 0.15% hits; AID 1259423; in the data active means activation above about 40%;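 further: 0% = vehicle and 100% = reference agonist at the receptor; some compounds past the cut are filed as inactive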
NPYLR7 agonist max-min – further read-out of NPYLR7 agonist, marked with its call; activation, %; measured here: Max-Min RFU normalised activation; some inactives read as strong as hits;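 span of the calcium signal over five minutes; 0% = vehicle and 100% = native peptide agonist; compound fluorescence can raise it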
* hit, by the source's call; & = joins results of further samples.

A first look:
entry | Compound | NPYLR7 agonist | NPYLR7 agonist max-min
1 | C=CCN(C#N)c1nc(N(C)C)nc(N(C)C)n1 | 1 | -1
2 | O=c1c2cnc3nc(-c4ccncc4)nn3c2ccn1Cc1ccccc1 | 3 | 4
3 | Cc1ccc(-c2ccccc2CN2CCCC(CNC(=O)c3cccs3)C2)o1 (stereo not given) | 9 | 0
4 | Cc1sc2nc(CN3CCCC3)nc(Sc3nnnn3Cc3cccs3)c2c1C | 2 | 5
5 | COc1cn(CC(=O)Nc2ccc(C(N)=O)cc2)c(CSc2ccc(C)cc2)cc1=O | -3 | -9
6 | O=C(Nc1nc(-c2cccs2)cs1)C1CC(=O)N(C2CCCC2)C1 (stereo not given) | -5 | -5
7 | CCCOc1ccc(N2C(=O)CC(NC3CCCCC3)C2=O)cc1 (stereo not given) | 0 | -3
8 | O=C(NCCc1cnccn1)C1CCCN(C2CCN(C(=O)C3CC3)CC2)C1 (stereo not given) | 2 | 1
9 | CC(C)Cc1nc(-c2cccc(CN3CCN(C(=O)CC4C=CCC4)CC3)c2)no1 (stereo not given) | 8 | 21
10 | O=C1CCCN1CC1CCCN(Cc2ccc(-c3ccccn3)cc2)C1 (stereo not given) | 7 | 5
11 | O=C1C2C3CC(C4Sc5[nH]c(=O)sc5C=C34)C2C(=O)N1c1ccc(F)cc1 (stereo not given) | 12 | 9
12 | CC1CCC(NC(=O)C(C)N(C)CCC2CCCCN2C)CC1 (stereo not given) | -1 | -1
13 | Cc1cc(O)c(CN2CCN(CC(=O)N3CCCCC3)CC2)cc1C | 0 | -2
14 | CCn1c(C(=O)N2CCN(C(=O)C(C)(C)C)C(C)C2)cc2ccsc21 (stereo not given) | -4 | 13
15 | COCC(=O)N[C@H]1C[C@@H](C(=O)NCc2ccccc2F)N(C)C1 | 3 | -1
16 | CN1C(=O)C(=Cc2ccc([N+](=O)[O-])cc2)SC1=S | 7 | 13
17 | O=C(COC(=O)c1ccc(Br)o1)COC(=O)c1ccc(Br)o1 | -5 | -11
18 | Cc1nc2c(C)cccn2c(=O)c1NC(=O)c1ccc(Br)cc1 | 2 | 2
19 | Cc1ccccc1-n1ncc2c1CC(C)(C)CC2NC(=O)CSc1ccncc1 (stereo not given) | 3 | 0
20 | Cc1nsc(NC(=O)NC(C)c2ccc(F)cc2)n1 (stereo not given) | -2 | -7

All compounds of this part, from the start:
entry | Compound | NPYLR7 agonist | NPYLR7 agonist max-min
1 | C=CCN(C#N)c1nc(N(C)C)nc(N(C)C)n1 | 1 | -1
2 | O=c1c2cnc3nc(-c4ccncc4)nn3c2ccn1Cc1ccccc1 | 3 | 4
3 | Cc1ccc(-c2ccccc2CN2CCCC(CNC(=O)c3cccs3)C2)o1 (stereo not given) | 9 | 0
4 | Cc1sc2nc(CN3CCCC3)nc(Sc3nnnn3Cc3cccs3)c2c1C | 2 | 5
5 | COc1cn(CC(=O)Nc2ccc(C(N)=O)cc2)c(CSc2ccc(C)cc2)cc1=O | -3 | -9
6 | O=C(Nc1nc(-c2cccs2)cs1)C1CC(=O)N(C2CCCC2)C1 (stereo not given) | -5 | -5
7 | CCCOc1ccc(N2C(=O)CC(NC3CCCCC3)C2=O)cc1 (stereo not given) | 0 | -3
8 | O=C(NCCc1cnccn1)C1CCCN(C2CCN(C(=O)C3CC3)CC2)C1 (stereo not given) | 2 | 1
9 | CC(C)Cc1nc(-c2cccc(CN3CCN(C(=O)CC4C=CCC4)CC3)c2)no1 (stereo not given) | 8 | 21
10 | O=C1CCCN1CC1CCCN(Cc2ccc(-c3ccccn3)cc2)C1 (stereo not given) | 7 | 5
11 | O=C1C2C3CC(C4Sc5[nH]c(=O)sc5C=C34)C2C(=O)N1c1ccc(F)cc1 (stereo not given) | 12 | 9
12 | CC1CCC(NC(=O)C(C)N(C)CCC2CCCCN2C)CC1 (stereo not given) | -1 | -1
13 | Cc1cc(O)c(CN2CCN(CC(=O)N3CCCCC3)CC2)cc1C | 0 | -2
14 | CCn1c(C(=O)N2CCN(C(=O)C(C)(C)C)C(C)C2)cc2ccsc21 (stereo not given) | -4 | 13
15 | COCC(=O)N[C@H]1C[C@@H](C(=O)NCc2ccccc2F)N(C)C1 | 3 | -1
16 | CN1C(=O)C(=Cc2ccc([N+](=O)[O-])cc2)SC1=S | 7 | 13
17 | O=C(COC(=O)c1ccc(Br)o1)COC(=O)c1ccc(Br)o1 | -5 | -11
18 | Cc1nc2c(C)cccn2c(=O)c1NC(=O)c1ccc(Br)cc1 | 2 | 2
19 | Cc1ccccc1-n1ncc2c1CC(C)(C)CC2NC(=O)CSc1ccncc1 (stereo not given) | 3 | 0
20 | Cc1nsc(NC(=O)NC(C)c2ccc(F)cc2)n1 (stereo not given) | -2 | -7
21 | CCCSc1ncc(CN2CCCn3cncc3C2)cn1 | 11 | 1
22 | COC(C(=O)N/N=C\c1cc(Br)c(C)o1)c1ccccc1 (stereo not given) | 22 | 12
23 | COc1ccc(-c2nc(N3CCN(C(=O)c4ccccc4Cl)CC3)c3ccccc3n2)cc1 | 35 | 35
24 | O=C1c2ccccc2C(=O)c2c1cccc2N1CCCCC1 | -7 | -7
25 | Cc1csc2nc3sc4c(c3c(=O)n12)CCCC4 | 9 | 16
26 | C=C(Br)CN(C)CCN1CCOCC1 | 5 | 3
27 | COc1ccc2nc(-c3ccc(OC)c(NS(=O)(=O)c4ccccc4)c3)cn2n1 | -8 | -13
28 | CN(Cc1ccsc1)C(=O)CN1CC(=O)NC1=O | 1 | -3
29 | COc1ccc(C)c2sc(N(Cc3ccncc3)C(=O)c3ccc(C#N)cc3)nc12 | 0 | -6
30 | O=C(NC1CC1)C1CCCN(C2CCN(C(=O)Cn3cccn3)CC2)C1 (stereo not given) | -5 | -9
31 | NC(=O)Cn1c(SCC(=O)Nc2ccc([N+](=O)[O-])cc2)nnc1-c1cccs1 | 8 | 8
32 | O=S(=O)(c1ccc(NCc2cccnc2)cc1)C(F)(F)F | -17 | -20
33 | CC(C)(C)OC(=O)NCCNC(=O)C1CCCN(C(=O)c2ccccc2)C1 (stereo not given) | 21 | 17
34 | CCCCOc1ccc(C(=O)Nc2c(C)nc3c(C)cccn3c2=O)cc1 | 2 | 1
35 | Cn1cc([N+](=O)[O-])c(C(=O)Nc2sc3c(c2C#N)CCC3)n1 | -5 | -17
36 | N#CC1C(=N)Oc2c(c(=O)oc3ccccc23)C12C(=O)Nc1ccc(Br)cc12 (stereo not given) | -8 | -12
37 | CNc1ncccc1C(=O)Nc1cccc(C(=O)NC(C)(C)C)c1C | 12 | 11
38 | Cc1nc(NCCNC(=O)Nc2ccc(F)cc2F)cc(N2CCCC2)n1 | -4 | -6
39 | CC1Cc2c(Br)cccc2C(=O)N1 (stereo not given) | 4 | 1
40 | CC1CN(C(=O)CN2CCC(=O)N(Cc3ccccc3)c3ccccc32)CCO1 (stereo not given) | 2 | 0
41 | Clc1cccc(CN2CCCC(Nc3ccccc3)C2)c1 (stereo not given) | 6&-3 | 4&-4
42 | COc1cc(C=NNC(=O)Cc2cccs2)cc(OC)c1O | -1 | -4
43 | OCCCCN(c1ncc(Br)cn1)C1CC1 | 0 | -2
44 | CCOC(=O)C1(NC(=O)CC2C(=O)Nc3ccc(C)cc32)CCC1 (stereo not given) | 27 | 17
45 | CN(Cc1cccc(Cl)c1)C(=O)CCn1cnc2sc3c(c2c1=O)CCCC3 | -1 | -6
46 | Cc1cc(C)c(S(=O)(=O)N2CCC(C(=O)Nc3nccs3)CC2)c(C)c1 | -4 | -3
47 | COc1ccccc1NC(=O)N(CCCN1CCOCC1)CC(=O)N(Cc1ccc(F)cc1)Cc1ccco1 | -3 | 0
48 | COc1cccc(CN2CCNC(=O)CC2c2ccccc2)c1 (stereo not given) | 12 | 3
49 | FC(F)(F)Oc1ccccc1CNC1CCN(C2CC2)C1 (stereo not given) | 4 | 4
50 | CNS(=O)(=O)c1cc(NCc2cc3ccccc3s2)cc(C(=O)Nc2ccc(OC)cc2)c1 | 11 | 0
51 | CCOC(=O)C1=C(C)NC(=O)NC1c1ccc(F)cc1 (stereo not given) | -7 | -9
52 | Cn1c(C(C#N)=Cc2ccsc2)nc2ccccc21 | -1 | 0
53 | COc1cccc(C2Nc3cccc4cccc(c34)N2)c1OC | 5 | 1
54 | Cc1cc(-c2nnco2)ccc1NS(=O)(=O)c1cccc(F)c1C | 0 | -3
55 | COCCCN(CC(=O)N1CCc2sccc2C1c1ccc(C)cc1)C(=O)c1cccc(F)c1 (stereo not given) | -8 | -6
56 | COC(=O)CN(Cc1ccccc1C)S(=O)(=O)c1ccc(C(N)=O)cc1 | 0 | -4
57 | CCOc1ccc(Br)cc1S(=O)(=O)N1Cc2ccccc2CC1C(=O)NC (stereo not given) | 3 | 1
58 | Cc1nnc(SCC2=C(C(=O)O)N3C(=O)[C@@H](NC(=O)Cn4cnnn4)[C@H]3SC2)s1 | -15&-3&-3&7 | 3&-10&-6&-9
59 | CC1C(=O)N(c2cccc3ccccc23)CCN1C(=O)Nc1ccccc1 (stereo not given) | -3 | 7
60 | COc1ccc(C(=O)CCC(=O)N2CCCC(Nc3ccccc3)C2)cc1 (stereo not given) | 0 | -1

Shown field by field: entries from further up.
47	COc1ccccc1NC(=O)N(CCCN1CCOCC1)CC(=O)N(Cc1ccc(F)cc1)Cc1ccco1
  NPYLR7 agonist: -3	NPYLR7 agonist max-min: 0
60	COc1ccc(C(=O)CCC(=O)N2CCCC(Nc3ccccc3)C2)cc1 (stereo not given)
  NPYLR7 agonist: 0	NPYLR7 agonist max-min: -1

The listing continues:
entry | Compound | NPYLR7 agonist | NPYLR7 agonist max-min
61 | O=S1(=O)CCC(NCCCN2CCOCC2)C1 (stereo not given) | -12 | -17
62 | COc1ccc(C(=O)CSc2ncnc3c2oc2ccccc23)cc1 | -5 | -7
63 | CCCC(=O)Nc1cccc(C(=O)NC(C)Cc2cc(C)[nH]n2)c1 (stereo not given) | 21 | 12
64 | CCOCCn1c2c(=O)n(C)c(=O)n(C)c2n2c(-c3ccc(OCc4ccccc4)cc3)nnc12 | 5 | 0
65 | COC(=O)c1ccc(/C=C2\N=C(c3ccc(Cl)cc3)OC2=O)cc1 | 11 | 11
66 | Cc1nnc(CNC(=O)C(NC(=O)CC(C)C)c2ccccc2)n1C (stereo not given) | 5 | 2
67 | CCOC(=O)C1=C(C)NC(=O)NC1c1ccc(F)c(F)c1 (stereo not given) | 10 | 1
68 | Cc1ccc(C(=O)N(CC(=O)N2CCc3sccc3C2c2ccc(Cl)cc2Cl)Cc2ccc(F)cc2)cc1[N+](=O)[O-] (stereo not given) | -10 | -14
69 | CCn1nc(C(=O)O)c2c1CCN(C(=O)C1CCCN(Cc3ccco3)C1)C2 (stereo not given) | 7 | -9
70 | CC(C)C1CN(C(=O)c2cc(C3CC3)[nH]n2)CCCN1Cc1ccc(F)cc1 (stereo not given) | -8 | -10
71 | COCC(=O)NC1CCN(c2ccccc2C(=O)N2CCc3ccccc3C2)CC1 | 9 | 20
72 | Brc1cccc(C=NN2CCN(Cc3cccc4ccccc34)CC2)c1 | -6 | -9
73 | COc1ccc(OC)c2sc(N(CCCN(C)C)C(=O)c3ccc(Cl)cc3)nc12 | 8 | 7
74 | O=C(CCn1cncn1)N(CC#Cc1ccccc1)C1CCCC1 | 5 | 4
75 | COCc1cc(N2CCN(c3ccc(OC)cc3)CC2)nc(SCc2ccc(C(=O)O)cc2)n1 | 11 | 20
76 | CC(C)c1ccc(Cc2nnc(N3CCOCC3)[nH]c2=O)cc1 | 13 | 7
77 | CC(=O)OCCSc1nc(N(C)C)nc(N(C)C)n1 | 2 | 0
78 | Cc1ccc2ncc(C(=O)NCCCc3ccccc3)c(=O)n2c1 | 7 | 4
79 | O=C(NC(=S)NC1CCS(=O)(=O)C1)C12CC3CC(CC(C3)C1)C2 (stereo not given) | 5 | 5
80 | Clc1cccc(C2c3cccn3CCCN2Cc2ccco2)c1 (stereo not given) | 1 | 8
81 | CCCNC(=O)N[C@H]1C[C@@](O)(C(=O)N[C@H](C)C(N)=O)C[C@@H](O)[C@@H]1O | -7 | -10
82 | O=C(NCC1CCCN(C(=O)CCCN2CCCC2=O)C1)c1ccc(F)cc1 (stereo not given) | 11&13 | 4&7
83 | O=C1C2C3C=CC(C2C(=O)N1c1cccnc1)C1C(=O)N(c2cccnc2)C(=O)C31 (stereo not given) | 2 | -4
84 | OCCNc1nc(Nc2ccccc2)c2nccnc2n1 | 1 | 5
85 | CN(C)C(=O)c1nn(Cc2ccccc2)c2c1CN(C(=O)c1ccc(F)c(F)c1)CC2 | 15 | 2
86 | Cc1ccc(Cn2c(=O)c(C(=O)NCc3cccnc3)nn(-c3ccc(C)c(F)c3)c2=O)cc1 | -3 | 2
87 | CCN(CC)CCN(C)C1C2CC3CC(C2)CC1C3 (stereo not given) | -9 | -11
88 | COCCN(CCc1csc2nc(-c3ccc4ccccc4c3)cn12)C(=O)Nc1ccccc1C | 26 | 15
89 | O=C(CCc1nc2ccccc2s1)OC1CCCCC1=O (stereo not given) | 1 | 0
90 | COCC1CCN(c2ccc(C(=O)N3CCC(CCn4cccn4)CC3)cn2)C1 (stereo not given) | 2 | 1
91 | CCc1n[nH]c(=S)n1NCc1ccc(-c2ccc(OC)c(Cl)c2)o1 | 5 | 6
92 | O=S(=O)(Oc1ccc(F)c(Cl)c1)c1ccccc1 | 11 | 10

An excerpt, so the mix of outcomes need not match the whole.
